Rango dissoc inh: inhibition of RanGTP-driven Rango-importin beta dissociation | O95149+P62826 | Biochemical FRET Rango-importin beta, RanGTP-induced dissociation | Potency, µM (titrated, usually from 46.1 µM), without a hit: at the top dose activity change, negative = inhibition | 0.071% of 340,000 active; active means falling FRET ratio curve, often poorly fitted, with flat reads before Ran was added; inconclusive means other falling curves, or compound fluorescence or quenching; inactive means flat or rising ratio curve;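 note: potency is the fitted concentration of half-maximal effect; % of control where 0% means no effect; nearly all actives have a fitted effect of over 45% in size; -100% = wells without RanGTP and RCC1; the record marks most hits as doubtful in a second field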
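Rango/importin beta premix (0.1/0.25 uM final), PBS + 1 mM DTT + 0.02% Tween-20 + 0.1% BSA; cpd 5 min RT; FRET pre-read; + RanGTP-RCC1 (0.6 uM Ran, 2 mM GTP, 0.2 uM RCC1); 45 min RT; FRET post-read, ex 430, em 486/530 nm.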
GLA inh pH 4.5: inhibitors of human alpha-galactosidase A at pH 4.5; P06280; purified enzyme, 4-MU-alpha-Gal fluorescence, pH 4.5; activity change, negative = inhibition, % at 105 µM; 230,000 tested, under 10 active; AID 1467; inconclusive = small, poorly fitted or top-dose-only inhibition, or a rising curve; inactive = flat fitted curve, though single readings scatter; no compound was filed as active;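 note: 0% = full activity with enzyme and -100% = basal without enzyme; dose as in the result columns while the protocol names 77 µM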
Rango complex inh: Rango-importin beta binding inhibition; AID 540263; Q14974; Rango CFP/YFP FRET sensor + importin beta, 45 min; Potency, µM (top dose mostly 92.2 µM), for the others: at the highest dose inhibition of complex formation; 0.031% of 340,000 active; active = rising FRET ratio curve, often small or poorly fitted; inconclusive = mostly compound fluorescence or quenching in the first reads; inactive = flat curves in all reads;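 note: potency is the fitted concentration of half-maximal effect; 0% = DMSO wells and 100% = buffer wells lacking importin beta; nearly all actives have a fitted effect of over 15% in size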
Target sequence (Q14974 whole entry, looked up): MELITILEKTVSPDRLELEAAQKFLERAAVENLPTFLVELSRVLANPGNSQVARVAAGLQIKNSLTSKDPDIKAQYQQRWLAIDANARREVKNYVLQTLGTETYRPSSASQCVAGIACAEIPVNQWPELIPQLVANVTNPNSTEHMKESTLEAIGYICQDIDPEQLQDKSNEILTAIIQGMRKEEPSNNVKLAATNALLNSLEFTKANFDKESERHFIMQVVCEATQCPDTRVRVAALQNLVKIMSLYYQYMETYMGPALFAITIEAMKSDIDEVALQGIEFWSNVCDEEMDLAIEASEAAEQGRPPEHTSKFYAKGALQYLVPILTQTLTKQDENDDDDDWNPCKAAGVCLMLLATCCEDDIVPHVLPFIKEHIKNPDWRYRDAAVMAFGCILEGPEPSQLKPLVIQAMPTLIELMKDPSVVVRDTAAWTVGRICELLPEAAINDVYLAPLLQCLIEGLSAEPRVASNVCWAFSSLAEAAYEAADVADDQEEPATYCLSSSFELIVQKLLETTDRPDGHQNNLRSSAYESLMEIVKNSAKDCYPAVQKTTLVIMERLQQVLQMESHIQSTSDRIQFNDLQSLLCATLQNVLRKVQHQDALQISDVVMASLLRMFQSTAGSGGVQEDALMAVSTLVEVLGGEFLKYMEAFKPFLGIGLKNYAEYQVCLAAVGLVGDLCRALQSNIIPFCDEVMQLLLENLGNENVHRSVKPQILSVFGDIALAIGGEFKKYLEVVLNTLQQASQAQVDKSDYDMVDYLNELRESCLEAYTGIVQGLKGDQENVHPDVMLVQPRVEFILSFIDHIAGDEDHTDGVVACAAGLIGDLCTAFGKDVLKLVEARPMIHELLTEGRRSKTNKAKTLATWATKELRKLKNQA
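FRET biosensor (snurportin 1 IBB flanked by EYFP and cerulean), 50 nM, with compound 5 min, then 0.125 microM importin beta in PBS, 1 mM DTT, 0.02% Tween-20, 0.1% BSA. CFP/YFP ratio read after 45 min at room temperature; pre-read flags interference.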
miR-21 reporter: miR-21 reporter, rising signal | 340,000 tested, under 10 active | HeLa miR-21 FLuc reporter, luciferase, 48 h | AID 2288 | Potency, µM (doses to about 38.3 µM), without a hit: at the highest dose reporter change, positive = more light; active = well fitted rising curve with a large enough effect; inconclusive = small, poorly fitted or top-dose-only effect; inactive = no such curve, though single readings can be large or run the other way;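 note: % of control where 0% means no effect; miR-21 action dims this reporter so a rising signal means less miR-21 action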
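Luminescence from a firefly luciferase reporter carrying a miR-21 binding site downstream, stably expressed under a CMV promoter in HeLa cells that make miR-21 endogenously, reports miRNA modulation after 48 h compound exposure up to approximately 40uM final.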
* hit, by the source's call; ? = inconclusive; . = no result given; & = joins results of further samples; [ ] = dose if it differs, or a comment.

SMILES	Rango dissoc inh	GLA inh pH 4.5	Rango complex inh	miR-21 reporter
CCCC[n+]1ccn(-c2nc3c([N+](=O)[O-])cccc3n2C)c1	10%	.	-1.6%	3%
NCCCC[C@@H](C(=O)N1CCNCC1)n1cc([C@@H](N)CO)nn1	1%	3	-0.3%	-2%
Cc1nc(NC(=O)C2CC2)sc1C(=O)Nc1cccc(Cl)c1	?	.	?	7%
CCCCN(C(=O)c1cc(-c2ccco2)nc2ccccc12)c1c(N)n(CCCC)c(=O)[nH]c1=O	-21%	.	-0.6%	.
CC(=O)N1/C(=C/c2ccc(N(C)C)cc2)C(=O)c2ccccc21	-10%	5	-0.6%	?
Cc1ccc2c(c1)N(C(=O)CCC(=O)NCCCN1CCN(C)CC1)CCO2	-15%	.	0.5%	0%
Cn1cnc([N+](=O)[O-])c1Oc1cccc2ccccc12	-5%	-1	-0.3%	21%
COc1ccc(NC(=O)N2CCCC2C(=O)Nc2ccc(C)cc2C)cc1 (stereo unspecified)	3%	.	-0.3%	10%
Cc1ccccc1NC(=O)c1cccc(C(F)(F)F)c1	0%	-6	-0.1%	-21%
CC1(C)C(=O)C2(C(=O)NCc3ccccc3)CCC1C2 (stereo unspecified)	-10%	-1	-2.7%	0%
N=c1nc(N)nc2n1NC(c1ccc(F)cc1)=CS2	4%	1	-0.9%	-94%
O=C(CSc1nc2ncc(Br)cc2[nH]1)Nc1ccccc1-c1ccccc1	0%	.	-0.5%	10%
O=C(CCS(=O)(=O)Cc1ccc(Cl)cc1)NCCCN1CCN(c2ccccc2F)CC1	26%	-5	8.2%	25%
COC(=O)c1ccc(NS(=O)(=O)c2ccc(S(=O)(=O)N3CCOCC3)cc2)cc1	-7%	.	0.7%	.
O=C(COc1ccccc1Cl)N1CCc2ccccc21	-8%	.	-3.8%	-67%
C=CCOC(=O)C1=C(C)NC(SCC(N)=O)=C(C#N)C1c1cccs1 (stereo unspecified)	0%	-4	-0.4%	-2%
Cc1cc(NC(=O)CN2C(=O)S/C(=C\c3ccccc3)C2=O)no1	38%	-1	3.0%	-1%
CCOC(=O)c1cc2n(n1)C(C(F)(F)C(F)(F)F)CC(C)N2 (stereo unspecified)	-22%	3	-2.7%	-6%
O=C1ON=C(c2cccc([N+](=O)[O-])c2)/C1=C/c1ccc(O)cc1	-6%	0	8.7%	0%
Cc1ccc(NC(=O)CSCC(=O)NCCc2ccccc2)cc1	-11%	.	0.1%	-6%
COC(=O)c1ccccc1NC(=O)CCCN1C(=O)C(c2ccccc2)Oc2cccnc21 (stereo unspecified)	-1%	.	1.4%	-3%&-16%
COc1cc(C2C(C(=O)OCCC#N)=C(C)NC3=C2S(=O)(=O)c2ccccc23)cc(OC)c1OC (stereo unspecified)	-6%	1	0.0%	-9%
CN(C)/C=N/C(=S)Nc1ccccc1F	3%	3	-4.1%	-21%
C=CCn1c(=O)c2c(nc3n2CCCN3Cc2ccccc2)n(C)c1=O	-3%	.	1.3%	7%

Exported with values ahead of the structure: 5 of the compounds above.
| Rango dissoc inh | GLA inh pH 4.5 | Rango complex inh | miR-21 reporter | SMILES |
| --- | --- | --- | --- | --- |
| -8% | . | -3.8% | -67% | O=C(COc1ccccc1Cl)N1CCc2ccccc21 |
| 0% | -4 | -0.4% | -2% | C=CCOC(=O)C1=C(C)NC(SCC(N)=O)=C(C#N)C1c1cccs1 (stereo unspecified) |
| 38% | -1 | 3.0% | -1% | Cc1cc(NC(=O)CN2C(=O)S/C(=C\c3ccccc3)C2=O)no1 |
| -22% | 3 | -2.7% | -6% | CCOC(=O)c1cc2n(n1)C(C(F)(F)C(F)(F)F)CC(C)N2 (stereo unspecified) |
| -6% | 0 | 8.7% | 0% | O=C1ON=C(c2cccc([N+](=O)[O-])c2)/C1=C/c1ccc(O)cc1 |

Continuation:
SMILES	Rango dissoc inh	GLA inh pH 4.5	Rango complex inh	miR-21 reporter
COCCNC(=O)NC(=O)CN1CCN(C(c2ccccc2)c2ccccc2)CC1	15%	-10	3.0%	1%
Cc1[nH]c2ccccc2c1C(=O)C(=O)NCCCc1ccccc1	11%	.	2.1%	-2%
c1ccc(-c2cc(-c3nnc4sc(-c5ccccn5)nn34)[nH]n2)cc1	-16%	0	?	-13%
O=C(Nc1ccc(S(=O)(=O)N2C[C@@H]3C[C@@H](C2)c2cccc(=O)n2C3)cc1)c1ccc(F)cc1	12%	.	-3.7%	.
CON(C)c1nc(OCCNC(=O)OCc2ccc(Cl)cc2C)nc(N(C)C)n1	16%	0	1.0%	0%
O=C(NCc1ccccc1)c1cc(-c2cccs2)on1	0%	?	-0.9%	-47%
O=C(CNCCc1ccc(F)cc1)Nc1cc(F)ccc1F	-6%	.	2.3%	-10%
Cc1cc(/C=C(/C#N)C(=O)O)c(C)n1CCC(C)C	-7%	2	0.0%	-26%
Oc1ccc(Cc2ccccc2Cl)c(O)c1	1%	.	3.2%	.
COc1ccccc1N1CCN(C(=O)CSc2nc(C)c(Cc3ccccc3)c(=O)[nH]2)CC1	-4%	7	4.4%	2%
Cc1nc2ccccn2c1-c1nnco1	-2%	3	0.6%	1%
Cc1cc(C)c(C#N)c(SC(F)F)n1	5%	10	-0.5%	-2%
Cc1ccc(-n2c(SCC(=O)Nc3ncc(Cl)cc3Cl)nc3ccccc32)cc1	1%	-6	0.3%	29%
Cc1cc(C)n(-c2nc3ccccc3c(=O)n2OCC(N)=O)n1	14%	3	-7.6%	-5%
O=C(NCc1cccnc1)c1cn(-c2ccccc2)nc1-c1ccccc1	1%	-19	0.3%	-19%
CCOc1ccc(N2CC(C(=O)Nc3ccncc3)CC2=O)cc1 (stereo unspecified)	13%	.	0.3%	0%
COc1cccc(C(=O)CC(C#N)c2ccc(F)cc2)c1 (stereo unspecified)	16%	.	1.8%	-1%
COC(=O)c1ccccc1NC(=O)NC1CCCCC1	-4%	-1	-1.5%	-6%
Cc1cc(C)cc(OC(C)C(=O)NCCCn2ccnc2)c1 (stereo unspecified)	10%	.	-0.6%	1%
Cc1ccc(N(C)S(=O)(=O)c2cccc(C(=O)NC3=NCCS3)c2)cc1	-4%	3	-4.1%	18%
CCCc1[nH]nc2c1C1(CCN(C(=O)OCc3ccccc3)CC1)C(C#N)=C(N)O2	?	-1	?	-3%
CN1CCc2c(OCC(=O)N3CCC(Cc4ccccc4)CC3)cccc2C1=O	?	1	0.4%	24%
COC(=O)C(C(=O)Nc1nc2ccccc2s1)C1CCCC1 (stereo unspecified)	-7%	1	11%	1%
Cc1sc2nc(CSC(C)C(=O)Nc3ccc(Cl)cn3)[nH]c(=O)c2c1C (stereo unspecified)	-3%	.	-0.2%	.
COc1ccc(-c2nc3ccccc3n2CCC(C)C)cc1OC	-9%	4	0.0%	8%
Cc1ccn(S(=O)(=O)c2ccc(N3CCCC3=O)cc2)n1	16%	.	0.9%	9%
O=C(OCCN1C(=O)c2ccccc2C1=O)c1cc(=O)[nH]c2ccccc12	?	-7	0.2%	1%
CCOc1ccccc1N1CCN(C(=O)c2cc3c(s2)CCC3)CC1	0%	-11	2.7%	-2%
CCCCn1c(N)c(N(CC(C)C)C(=O)CSCC(=O)Nc2ccc(OC)cc2)c(=O)[nH]c1=O	-2%	.	-4.7%	.
O=C(Nc1nc(-c2ccccc2)cs1)c1ccc2c(c1)S(=O)(=O)c1ccccc1C2=O	0%	0	-0.3%	-3%
COc1ccc(NC(=O)CNC(=O)CC23CC4CC(CC(C4)C2)C3)c(OC)c1	-4%	.	1.5%	.
Cc1ccc(C(=O)Nc2ccccc2Oc2ccccc2)o1	0%	.	-1.7%	.
Cc1ccc(C)c(CN2CCC(CNC(=O)CCc3nnc4ccc(N5CCCCC5)nn34)CC2)c1	-10%	.	3.2%	2%
Cc1ccc(NC(=O)N2CCCC2C(=O)NCc2ccc(Cl)cc2)cc1 (stereo unspecified)	-2%	.	-0.2%	-5%
CCc1ccccc1NS(=O)(=O)c1ccc2[nH]cc(C(=O)NC3CCCC3)c(=O)c2c1	-9%	2	-5.8%	?
Cc1oc(-c2ccc(Cl)cc2)nc1CS(=O)CC(=O)NCCCN1CCOCC1 (stereo unspecified)	-25%	.	8.3%	-1%
COc1cc(NS(=O)(=O)c2ccc(Br)s2)cc(OC)c1	-6%	-12	2.3%	-2%
CCOC(=O)c1[nH]cnc1C(=O)N1CCC(C)CC1	5%	.	0.1%	.
COC(=O)CCC(=O)N1CCCC(C(=O)c2ccc(Cl)cc2C)C1 (stereo unspecified)	-27%	.	-1.2%	-6%
CCC(c1nnnn1CCOC)N(Cc1cc2cc(C)c(C)cc2[nH]c1=O)CC1CCCO1 (stereo unspecified)	-9%	5	?	-3%
O=C(CNc1ccccc1)Nc1cccc2ccccc12	2%	.	2.2%	-4%
O=C(NCCc1ccc(F)cc1)c1ccc(S(=O)(=O)N2CCCC2)cc1	10%	.	0.8%	.
COc1nc(C)nc2c1sc1nc3c(cc12)COC(C)(C)C3	-4%	6	-5.3%	-47%
CC(CCc1ccccc1)NC(=O)C1CCN(S(=O)(=O)c2ccc(F)cc2)CC1 (stereo unspecified)	2%	.	-4.2%	12%
O=C(Nc1ccccc1)N(Cc1ccccc1)CC(O)C(F)(F)F (stereo unspecified)	-22%	-2	3.8%	-2%
CCn1cc(C(=O)N[C@H](C(=O)NCCN2CCOCC2)C(C)C)c(=O)c2cc3c(cc21)OCO3	0%	.	0.6%	1%
CCOC(=O)CN1CCS(=O)(=O)CC1	12%	2	3.7%	-1%
Cc1ccc(S(=O)(=O)CCC(=O)NC2CCCCC2)cc1	-8%	.	-2.9%	.
O=C(NCCCN1CCOCC1)c1cccnc1	2%	-6	4.8%	-1%
O=C(NNC(=O)c1cccc2ccccc12)c1ccc(Cl)cc1Cl	-1%	.	1.4%	.
COC(=O)c1scc(C)c1N/N=C(\C)c1cc(F)c(Cl)cc1F	-11%	7	-4.3%	4%
COc1ccc(-c2ccc(SC)nn2)cc1	-5%	-6	0.3%	22%
Cc1ccc(OCC(=O)NNC(=O)C(=O)N2CCCC2)c(C)c1	-16%	-9	-1.5%	0%
Cc1nc2ccccc2c2oc(C(=O)NCCCN3CCCC(C)C3)cc12 (stereo unspecified)	-3%	.	-0.2%	22%
CCn1c(CNc2ccc(C)cc2C)nnc1SCC(=O)N1CCCc2ccccc21	12%	-6	-1.9%	4%
CCN1CCN(c2ccc(S(=O)(=O)N3CCCCC3)cc2NC(=O)Cc2ccccc2)CC1	10%	.	-0.3%	.
Cc1ccc(S(=O)(=O)N2CC(C(=O)O)=CC[C@H]2c2ccc3c(c2)OCO3)cc1	12%	.	2.2%	.
COc1ccc(/C=N\NC(=O)CC(=O)Nc2cccc(Cl)c2)cc1OC	10%	1[21.1 µM]	-1.2%	-9%
CCCc1nnc2c(N(C)S(=O)(=O)c3ccccc3)nc3ccccc3n12	6%	-1	0.2%	-1%
CCn1nc(NC(=O)c2ccccn2)c2cc3cc(C)ccc3nc21	?	7	?	-14%

Carrying on:
SMILES	Rango dissoc inh	GLA inh pH 4.5	Rango complex inh	miR-21 reporter
Cc1ccc(-c2nnc(-n3ncc(C#N)c3N)c3ccccc23)cc1C	3%	-4	6.6%	4%
Cc1cccc2cc(COC(=O)c3ccccc3)c(=O)[nH]c12	11%	6	-2.5%	-6%
CCCCCc1c(C)nc(N2CCOCC2)[nH]c1=O	-2%	1	-2.8%	-6%
O=S(=O)(c1ccc(Cl)cc1)c1cnc(-c2cccnc2)nc1-c1ccccc1	-7%	-22	2.7%	-1%
CC(=O)N(O)CCCCCNC(=O)CCC(=O)N(O)CCCCCNC(=O)CCC(=O)N(O)CCCCCN	8%&-1%	-5&2&-5	-0.4%&-1.9%	19%
Cc1ccc(C(=O)N2CCCC(Nc3ccc(F)c(F)c3)C2)cn1 (stereo unspecified)	-25%	.	2.3%	0%
CC(Sc1nc2ccccc2c(=O)n1Cc1ccco1)C(=O)c1ccccc1 (stereo unspecified)	-3%	0	0.4%	-1%
Cc1cc(C)c2nc(SCC(=O)NCCC3=CCCCC3)cc(C)c2c1	18%	4	?	-6%
COc1ccc(C(C)=O)cc1CSc1nnc(Nc2ccc(C)cc2C)s1	21%	-12	-0.3%	-12%

Only part of the results is shown; the hit share may differ from the screen's.
